# Screens as filed in PubChem.
# ClpP mod – qHTS Assay for Activators of ClpP | ATP-dependent Clp protease proteolytic subunit (Bacillus subtilis (strain 168)), P80244 | purified B. subtilis ClpP, FRET peptide cleavage, 20 min | Potency, µM (top dose mostly 57.5 µM), inactives show top-dose activity change, negative = active | hit rate 1.9% among 340,000 | AID 651965, 2013; active = well fitted falling curve with a large enough effect; inconclusive = small, poorly fitted or top-dose-only effect; inactive = no such curve, though single readings can be large or run the other way; note: potency is the fitted concentration of half-maximal effect; the source files actives as falling curves though it sought activators and does not explain the sign; nearly all actives have a fitted effect of over 65% in size; many hits overshoot -100%
# Target sequence (P80244 whole entry, looked up): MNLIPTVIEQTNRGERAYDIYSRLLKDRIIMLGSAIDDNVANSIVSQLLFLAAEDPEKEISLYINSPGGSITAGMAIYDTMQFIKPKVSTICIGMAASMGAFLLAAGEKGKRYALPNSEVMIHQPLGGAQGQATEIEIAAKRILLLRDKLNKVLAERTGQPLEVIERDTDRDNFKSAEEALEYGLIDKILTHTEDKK
#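 Purified B. subtilis ClpP, 10 microg/mL final in Tris/HCl pH8 with KCl, BSA, glycerol and Tween-20, cleaved an Abz/nitrotyrosine-quenched decapeptide. Fluorescence (ex 320, em 430) was read at 0 and 20 min at room temperature. Delta was normalized to 5.8 microM ADEP and DMSO/no-enzyme controls.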
# TRPV1 potentiator – enhances activation of the human vanilloid receptor TRPV1 | Q8NER1 | TRPV1-expressing cells, Fluo-8 calcium influx, capsaicin EC20 potentiation; host cell line not named in the record; control for the full effect not named in the record | potentiation, % at 8.33 µM | hit rate 0.02% among 320,000; active means potentiation above 80%; inconclusive means 30% to 80%; inactive means below 30%; note: 0% is about no effect
#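 Cells expressing TRPV1 were dye-loaded with Fluo-8 and read kinetically: 10 s baseline, 3 min after compound (agonist portion), then 2 min after EC20 capsaicin (allosteric enhancer portion). Calcium-bound dye fluorescence at 480/520 nm.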
# Sfp inh – Sfp phosphopantetheinyl transferase inhibition. Q9F4F7. Biochemical Sfp PPTase activity, qHTS. Potency, µM, for the others: max response, negative = inhibition, usual class: inhibitors. hit rate 3.5% among 310,000; active = well fitted inhibition curve with a large enough effect; inconclusive = small, poorly fitted or top-dose-only effect, or another doubt; inactive = no such curve, though single readings can be large or run the other way;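 note: the enzyme is Sfp with the accession as filed and its product quenches rhodamine fluorescence; potency is the fitted concentration of half-maximal effect; 0% = enzyme reaction without inhibitor and -100% = no enzyme wells; top concentration of the series not given in the record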
#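 Step 1, compound plus 15 nM Sfp-PPTase, 15 min, room temperature. Step 2, add rhodamine-CoA (5 uM) and BHQ-2-YbbR (12.5 uM). Step 3, read 525/598 nm fluorescence at 0 and 30 min.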
# D2 PAM – positive allosteric modulators of human D2 dopamine receptor; hit rate 0.23% among 360,000; AID 624464; DiscoveRx D2 beta-arrestin cells, luminescence, 90 min; 100% = 57 uM dopamine signal; potentiation, % (no concentration beside the values); active = potentiation of 50% or more; inconclusive = 30% to 50%; inactive = 30% or less;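 note: compound concentration not given in the record; tested on top of an EC20 dose of dopamine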
# Target sequence (P14416 whole entry, looked up): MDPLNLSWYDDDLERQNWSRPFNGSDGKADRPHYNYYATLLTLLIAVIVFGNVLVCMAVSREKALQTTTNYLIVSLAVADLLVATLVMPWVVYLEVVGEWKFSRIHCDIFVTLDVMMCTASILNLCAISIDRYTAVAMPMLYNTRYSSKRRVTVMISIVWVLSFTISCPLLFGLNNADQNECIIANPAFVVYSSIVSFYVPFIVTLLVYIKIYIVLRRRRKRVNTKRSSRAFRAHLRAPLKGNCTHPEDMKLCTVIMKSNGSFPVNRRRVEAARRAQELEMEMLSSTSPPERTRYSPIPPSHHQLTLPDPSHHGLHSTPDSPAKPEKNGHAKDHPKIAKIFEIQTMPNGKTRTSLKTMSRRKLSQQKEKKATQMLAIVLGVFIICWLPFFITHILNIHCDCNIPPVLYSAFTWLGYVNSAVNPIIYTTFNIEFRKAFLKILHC
#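 D2 cells co-treated with compound plus 50 nM dopamine (EC20) for 90 min at 37 deg C to detect potentiation. Beta-arrestin recruitment was read as enzyme-fragment luminescence after 1 h at ambient temperature. Full response was set by 57 uM dopamine.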
# Menin MLL FP FL – displaces fluorescein MLL peptide from human menin | 290,000 tested, under 10 active | Fluorescence polarization, fluorescein-MLL peptide displacement from menin | FP activity change, % at 61.4 µM | AID 1766; inconclusive = falling polarisation curve, or a change in total fluorescence; inactive = total fluorescence flat and polarisation flat or rising; no compound was filed as active; the % refers to the polarisation; negative = inhibition;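 note: % of control where 0% means no effect; inhibitors lower the polarisation; unlabelled MLL peptide was the positive control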
# gsp antag – antagonizes gsp, the McCune-Albright syndrome mutation | gsp-mutant cells, cAMP HTRF, 30 min; control for the full effect not named in the record | Potency, µM (series often up to 76.9 µM), inactives show at the top dose activity change, negative = inhibition, actives largely listed as inhibitors | hit rate 0.4% among 340,000; active = falling curve of any shape with a large fitted effect; inconclusive = falling curve, mostly with a smaller effect; inactive = flat or rising curve; cell line not stated here;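 note: intracellular cAMP measured with PDE inhibitor Ro 20-1724 present during compound exposure; potency is the fitted concentration of half-maximal effect; % is set by controls: 0 for no effect and ±100 for the full control effect; nearly all actives have a fitted effect of over 65% in size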
#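 HTRF cAMP measurement after 30 min RT detection following 30 min, 37C compound treatment alongside […] (added as 300 uM solution) in G418-selected cells seeded at 2000/well and grown 16–24 h.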
# gsp ag – gsp mutant agonism; gsp mutant cells, cAMP HTRF, 30 min; control for the full effect not named in the record; hit rate 0.13% among 340,000; Potency, µM (top dose mostly 76.9 µM), for inactives: top-dose activation (cAMP increase), most hits filed as activators; active = well fitted activation curve with a large enough effect; inconclusive = small, poorly fitted or top-dose-only effect, or another doubt; inactive = no such curve, though single readings can be large or run the other way; cell line not stated here;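 note: phosphodiesterase inhibitor Ro 20-1724 added with compounds to block cAMP breakdown; potency is the fitted concentration of half-maximal effect; nearly all actives have a fitted effect of over 60% in size; about a fifth of the inactives were tested at one dose only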
#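 Cells stably selected in G418 were plated at 2000/well, grown 16-24 hr, then given compounds in DMSO with the PDE inhibitor […] (300 uM solution added) for 30 min at 37C; cAMP was read by HTRF.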
# * hit, by the source's call; ? = inconclusive; nt = not tested or not shown; [ ] = another dose, or the depositor's remark.
# The first 3 records, ahead of the listing:
SMILES,ClpP mod,TRPV1 potentiator,Sfp inh,D2 PAM,Menin MLL FP FL,gsp antag,gsp ag
O=C(Nc1ccc(OCC(=O)N2CCOCC2)cc1)c1cc(F)c(F)cc1Cl,nt,-6.8,11.2%,-5.0,2.5,7.3%,-2.4%
O=C(c1ccc(N2C(=O)C3C4CC(C(Br)C4Br)C3C2=O)cc1)N1CCCCC1 (stereo not given),-0.9%,-8.8,8.4%,-7.3,2.0,0.6%,9.1%[15.4 µM]
CN1/C(=C\C=C(/C#N)C(=O)Nc2ccccc2F)C(C)(C)c2ccccc21,6.0%,2.7,11.0%,-2.7,?,-6.4%,5.9%

# The listing, repeating the preview:
SMILES,ClpP mod,TRPV1 potentiator,Sfp inh,D2 PAM,Menin MLL FP FL,gsp antag,gsp ag
O=C(Nc1ccc(OCC(=O)N2CCOCC2)cc1)c1cc(F)c(F)cc1Cl,nt,-6.8,11.2%,-5.0,2.5,7.3%,-2.4%
O=C(c1ccc(N2C(=O)C3C4CC(C(Br)C4Br)C3C2=O)cc1)N1CCCCC1 (stereo not given),-0.9%,-8.8,8.4%,-7.3,2.0,0.6%,9.1%[15.4 µM]
CN1/C(=C\C=C(/C#N)C(=O)Nc2ccccc2F)C(C)(C)c2ccccc21,6.0%,2.7,11.0%,-2.7,?,-6.4%,5.9%
CC(C)c1ccccc1NC(=S)N1CCN(Cc2ccc3c(c2)OCO3)CC1,nt,-6.3,-0.3%,-14.8,0.5,6.5%,2.5%[15.4 µM]
OCCC1CN(Cc2cc3c(cc2Cl)OCO3)CCN1C1CCCC1 (stereo not given),-1.2%,4.4,4.4%,-17.7,-1.8,0.9%,11.7%
Cc1ccc(C(=O)NN2C(=O)/C(=C/c3cn(C)c4ccccc34)SC2=S)cc1,-2.0%,8.0,-1.9%,-4.9,nt,-0.3%,21.6%[15.4 µM]
CCC(C)(C)n1nnnc1CN1CCN(c2nc3cc(OC)ccc3cc2C#N)CC1,?,15.2,6.3%,1.0,-0.6,37.4%[activator],-14.0%
COC(=O)C1C(c2ccc(OC)cc2)C(C(=O)OC)S(=O)(=O)C(CCN2CCCCC2)S1(=O)=O (stereo not given),-2.5%,23.7,11.0%,-9.5,-5.9,2.6%,-1.9%[15.4 µM]
COc1ccc(Nc2c3c(nc4c(-c5ccccc5)c(C)nn24)CCC3)cc1,-8.8%,?,-7.0%,3.0,nt,7.6%,5.9%
Cc1ccccc1NC(=O)c1ccc(S(=O)(=O)C(F)F)cc1,-26.6%,-21.4,7.1%,3.0,4.8,-0.5%,0.4%
CC1CCCCN1C(=O)NC12CC3CC(CC(C3)C1)C2 (stereo not given),0.4%,10.1,6.5%,1.5,3.7,8.3%,13.4%
COc1ccccc1C1=CC(=O)C[C@H](c2ccc3c(c2)OCO3)C1,1.2%,-4.2,nt,0.7,nt,5.9%,?
O=C(CSc1nc(-c2ccco2)cc(C(F)(F)F)n1)NCc1cccs1,-14.6%,-15.4,10.6%,-8.8,0.9,-6.1%,-1.1%
O=C(NCc1cccnc1)c1ccc(COc2ccc(Cl)cc2Cl)o1,1.4%,-11.7,-3.4%,-11.7,1.1,6.1%,1.4%
CCOC(=O)N1CCN(c2cc(N)c([N+](=O)[O-])cc2F)CC1,0.3%,-12.4,1.3%,-4.1,-1.1,-35.5%,-4.4%
O=C1Cc2ccccc2C(=O)N1OCc1ccc(Cl)cc1Cl,nt,13.3,7.9%,-2.6,5.4,8.8%,20.7%[15.4 µM]
Cc1nc(C)n(CCNS(=O)(=O)c2ccc(C)c(C)c2)n1,nt,-1.1,8.0%,-3.6,3.6,4.0%,?
Cc1cc(C)c2cc(CN(CCO)Cc3nnnn3Cc3ccccc3)c(=O)[nH]c2c1,-8.8%,8.4,-23.4%,15.2,-0.5,-5.8%,24.6%
CCNS(=O)(=O)c1ccc(CCC(=O)N2CCN(c3cc(Cl)ccc3C)CC2)cc1,-1.5%,-12.2,9.5%,16.9,-1.2,?,-2.7%[15.4 µM]
Cc1nn(C2CCS(=O)(=O)C2)c(C)c1C=O (stereo not given),nt,10.1,-6.9%,-2.1,2.8,16.2%,4.4%[15.4 µM]
COC(=O)c1ccc(NC(=O)c2c(Br)cnn2C)cc1,0.5%,-5.5,35.5µM*,-1.6,-10.9,-8.0%,?
Cc1nn(CCOc2ccc(Br)cc2)c(C)c1[N+](=O)[O-],nt,-2.9,-5.1%,6.5,-2.3,-8.0%,-4.9%
CCOC(=O)c1c(NC(=O)CSC2=NN3CCCC(=O)N=C3S2)sc2c1CCCCC2,-4.6%,14.7,-22.1%,-6.5,4.4,-12.9%,?
O=C(CN1C(=O)c2cccc([N+](=O)[O-])c2C1=O)NCc1ccccc1,nt,3.5,7.3%,-2.9,-2.3,-2.3%,3.8%
O=C(CSCc1ccccc1Cl)N/N=C/c1ccco1,1.1%,-1.2,10.8%,-5.7,-5.7,7.4%,-22.7%

# The list goes on.
SMILES,ClpP mod,TRPV1 potentiator,Sfp inh,D2 PAM,Menin MLL FP FL,gsp antag,gsp ag
CCCN1C(=O)SC(CC(=O)Nc2ccccc2C)C1=O (stereo not given),-3.5%,-25.0,7.8%,-19.6,-0.4,1.0%,-6.5%
CC(c1n[nH]c(=S)n1-c1ccc(F)cc1)N1CCCCC1 (stereo not given),-5.3%,-4.5,-2.4%,-7.1,-0.3,-11.9%,14.1%[15.4 µM]
NS(=O)(=O)c1ccc(NC(NC(=O)c2cccnc2)C(Cl)(Cl)Cl)cc1 (stereo not given),1.0%,6.1,13.8%,-0.7,-2.0,4.7%,0.3%
Cc1ccc(NC(=O)CN(C)C(=O)Cn2ccsc2=N)cc1,nt,-0.5,8.3%,1.2,-0.1,2.3%,-11.2%
O=C(O)Cc1ccc(Oc2ncc(C(F)(F)F)cc2Cl)cc1,nt,11.3,20.0%,-4.3,-1.8,1.6%,2.7%[15.4 µM]
O=C(CC1CCCCC1)NCc1ccco1,nt,-2.8,20.7%,-4.9,1.2,4.0%,-1.3%
COc1ccc(-n2cc(CNC(C)c3ccncn3)c(-c3cccc(F)c3)n2)cc1 (stereo not given),nt,3.3,23.3%,-4.0,4.9,-20.1%,-8.3%[15.4 µM]
COC(=O)C1=C(C)NC(=O)NC1c1ccc2c(c1)OCO2 (stereo not given),-1.2%,1.5,8.9%,8.2,2.2,4.5%,9.0%
CCC(C)[C@H](NC(=O)NCCCN1CCOCC1)C(=O)OC (stereo not given in full),-0.8%,-5.7,10.7%,-6.4,-1.8,12.2%,8.3%
CCC(=O)Nc1cccc(NC(=S)NC(=O)c2cccs2)c1,-1.4%,-1.0,-12.4%,-14.3,3.3,-2.3%,-1.7%
CCOC(=O)c1sc2ccccc2c1OC(=O)c1ccccc1,-3.4%,-2.5,-6.5%,-15.0,-1.2,8.2%[15.4 µM],-35.7%[inhibitor]
COc1cc(/C=C2/C(=N)N3N=C(C)SC3=NC2=O)ccc1OS(=O)(=O)c1ccc(C)cc1,nt,6.8,-1.0%,-2.0,3.6,-10.6%,-4.1%
CCCC(=O)Nc1cccc(NC(=O)c2ccc3c(c2)OCCO3)c1,0.6%,-7.4,2.2%,-10.9,-1.4,-0.6%,-24.8%
CN(Cc1cccc2cnccc12)C(=O)c1cc(COc2ccc(F)cc2Cl)on1,1.7%,20.8,4.6%,-21.2,0.0,-18.8%,13.8%
CCOC(=O)C1=CC[C@@H](c2cc(OC)c(OC)c(OC)c2)N(S(=O)(=O)c2ccc(C)cc2)[C@H]1C(=O)OCC,0.5%,nt,nt,-6.6,nt,-4.6%,nt
CC(C)(C)c1nc2c(C#N)c(-c3ccc(Cl)cc3)ccn2n1,28.2µM*,25.9,-16.6%,67.8*,0.0,-18.7%,-2.3%
CC1=C(C(=O)OCc2ccccc2)C(c2ccccc2Cl)NC(=O)N1C (stereo not given),-2.2%,-8.2,-1.7%,-14.3,6.3,-6.2%,-13.8%[15.4 µM]
CCN(CC)c1ccc(C=NCCc2ccc(S(N)(=O)=O)cc2)cc1,-9.8%,5.4,9.4%,-0.2,3.3,-1.2%,?
CCCCNC(=O)CNC(=O)c1nn(-c2ccc(OC)cc2)c(=O)c2ccccc12,-1.5%,8.3,4.6%,-5.0,-11.0,-1.7%,17.4%
Cc1cc(C(=O)CN2C(=O)c3ccccc3S2(=O)=O)c(C)n1CC1CCCO1 (stereo not given),-0.8%,-4.9,-10.5%,-5.0,-9.0,6.6%,22.6%
COc1cc2c(cc1OC)CN(C(=O)c1sc(-c3cnccn3)nc1C)CC2,-2.3%,-5.0,14.1%,-14.3,8.7,-5.5%,-3.8%
CC(=O)Nc1ccc(S(=O)(=O)/N=C2\C(=O)c3ccccc3C([O-])=C2n2cc[n+](-c3ccccn3)c2)cc1,0.7%,nt,-6.8%,5.2,-6.8,10.3%,41.3%
CC(=O)COc1c(-c2ccco2)oc2ccccc2c1=O,3.5%,-9.6,14.5%,-9.9,-2.1,-0.3%,?
COC(=O)c1ccc(COc2cccc(OC)c2)o1,-1.9%,nt,13.8%,-0.4,2.1,-2.9%,22.9%
COC(=O)[C@]1(C)N[C@H](c2ccc(-c3ccc(Cl)c(Cl)c3)cc2)[C@@H]2C(=O)N(C)C(=O)[C@@H]21,-11.5%,-54.4,nt,-3.4,nt,-24.1%,43.2%
CCn1nc2cc(C(=O)NCC34CC5CC(CC(C5)C3)C4)ccc2c1OC,4.6%,16.7,-11.9%,-21.8,0.0,-0.6%,nt
C=CC(C)Sc1nc2c(c(=O)n(C)c(=O)n2C)n1Cc1ccccc1Cl (stereo not given),1.1%,-15.0,?,-5.0,0.9,-0.9%,-16.4%

# One compound at a time, from the list above:
# `CCN(CC)c1ccc(C=NCCc2ccc(S(N)(=O)=O)cc2)cc1` as listed: ClpP mod = -9.8%; TRPV1 potentiator = 5.4; Sfp inh = 9.4%; D2 PAM = -0.2; Menin MLL FP FL = 3.3; gsp antag = -1.2%; gsp ag = ?
# `CCCCNC(=O)CNC(=O)c1nn(-c2ccc(OC)cc2)c(=O)c2ccccc12` as listed: ClpP mod = -1.5%; TRPV1 potentiator = 8.3; Sfp inh = 4.6%; D2 PAM = -5.0; Menin MLL FP FL = -11.0; gsp antag = -1.7%; gsp ag = 17.4%
